2A StopGo: lowers the luciferase signal of an FMDV 2A StopGo reporter. human cells with a luciferase reporter of 2A StopGo recoding; control for the full effect not named in the record. Potency, µM (top dose mostly 57.9 µM), inactives show top-dose signal change, negative = less light. actives 1.2% (n = 410,000); active = well fitted falling curve with a large enough effect; inconclusive = small, poorly fitted or top-dose-only effect; inactive = no such curve, though single readings can be large or run the other way; tested in HEK293T cells; further: on the % scale 0 is the no-effect control and ±100 the full control effect; nearly all actives have a fitted effect of over 45% in size; luciferase light after 4 h
Marburg entry inh: blocks Marburg virus binding to or entry into cells. Marburg virus pseudotyped entry inhibition, cell reporter; control for the full effect not named in the record; about a third of the inactives were read at about 46 µM. Potency, µM (doses to about 37.8 µM), inactives show at the top dose activity change, negative = inhibition, actives largely listed as inhibitors. actives 1.8% (n = 300,000); active = well fitted inhibition curve with a large enough effect; inconclusive = small, poorly fitted or top-dose-only effect, or effect the other way; inactive = flat fitted curve, though single readings scatter; tested in HEK293 cells; about a fifth of its hits are not listed in these tables; further: on the % scale 0 is the no-effect control and ±100 the full control effect; luciferase read-out
LASV entry inh: inhibitors of Lassa virus binding or cell entry; Lassa virus pseudotype entry inhibition, cell reporter; control for the full effect not named in the record; Potency, µM (series often up to 37.9 µM), without a hit: at the top dose activity change, negative = inhibition, actives largely listed as inhibitors; actives 1.2% (n = 300,000); AID 540256; active means well fitted inhibition curve with a large enough effect; inconclusive means small, poorly fitted or top-dose-only effect, or effect the other way; inactive means flat fitted curve, though single readings scatter; tested in HEK293 cells; further: on the % scale 0 is the no-effect control and ±100 the full control effect; nearly all actives have a fitted effect of over 50% in size; luciferase read-out
NS1 inh: blocks influenza NS1 protein function; S. cerevisiae slowed by influenza A NS1, growth recovery by OD600; Potency, µM (doses to about 46.1 µM), for inactives: at the top dose activity, positive = more growth; actives 0.4% (n = 270,000); active means well fitted rising curve with a large enough effect; inconclusive means small, poorly fitted or top-dose-only effect; inactive means no such curve, though single readings can be large or run the other way; further: nearly all actives have a fitted effect of over 50% in size
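Compounds were scored for reversing the slow growth caused by influenza A NS1 in S. cerevisiae, measured by optical density at 600 nm. Assay medium contained 2% galactose at pH 6.0; NS1-free yeast of the same strain were the positive control.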
Cruzain noTriton: cruzain (T. cruzi) inhibition without detergent; purified cruzain, Z-FR-AMC fluorescence, no detergent; actives 2.3% (n = 200,000); Potency, µM, for the others: max response, negative = inhibition, actives largely listed as inhibitors; AID 1476;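 further: plate controls were enzyme without inhibitor for no effect and buffer without enzyme for full effect; nearly all actives have a fitted effect of over 40% in size; top concentration of the series not given in the record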
Target sequence (P25779 123-467 limits assumed): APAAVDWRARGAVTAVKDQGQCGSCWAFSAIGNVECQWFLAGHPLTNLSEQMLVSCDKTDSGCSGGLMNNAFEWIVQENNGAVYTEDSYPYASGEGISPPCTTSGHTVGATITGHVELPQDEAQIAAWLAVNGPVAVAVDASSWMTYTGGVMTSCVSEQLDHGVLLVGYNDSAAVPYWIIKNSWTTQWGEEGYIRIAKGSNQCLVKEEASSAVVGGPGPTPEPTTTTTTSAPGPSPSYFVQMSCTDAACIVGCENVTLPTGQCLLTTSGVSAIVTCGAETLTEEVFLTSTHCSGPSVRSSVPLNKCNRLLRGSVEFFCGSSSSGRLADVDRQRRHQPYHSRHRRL
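Purified cruzain at 1.5 nM, pre-incubated 15 min with compound at room temperature in 100 mM sodium acetate pH 5.5, 5 mM DTT, 0.00005% Triton X-100. Reaction started with 2 uM Z-FR-AMC; AMC fluorescence increase over 60 s gives rate.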
SARS PLP yeast: inhibitors of SARS-CoV papain-like protease in yeast | S. cerevisiae expressing SARS-CoV PLpro, growth rescue; control for the full effect not named in the record | Potency, µM (titrated, usually from 32.9 µM), without a hit: at the top dose activity, positive = growth rescue | actives 0.19% (n = 330,000) | AID 485353; active means well fitted rising curve with a large enough effect; inconclusive means small, poorly fitted or top-dose-only effect; inactive means no such curve, though single readings can be large or run the other way; further: 0% is about no effect; nearly all actives have a fitted effect of over 55% in size; growth read by luminescence after 48 h
RE007 growth inh: less growth of the S. pombe RE007 Vpr strain | actives 0.21% (n = 360,000) | AID 651644 | Potency, µM (titrated, usually from 92.2 µM), without a hit: top-dose activity change, negative = less growth | S. pombe RE007 Vpr strain, BacTiter-Glo ATP luminescence, 24 h; control for the full effect not named in the record; active = well fitted falling curve with a large enough effect; inconclusive = small, poorly fitted or top-dose-only effect; inactive = no such curve, though single readings can be large or run the other way;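 further: on the % scale 0 is the no-effect control and ±100 the full control effect; nearly all actives have a fitted effect of over 50% in size; the assay follows cell death caused by Vpr and the record does not say whether a fall means rescue or toxicity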
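Fission yeast strain RE007, carrying one chromosomally integrated HIV-1 vpr copy, was seeded at OD 0.01 in PMG+AL medium with 23 nL pinned compound. After 24 h at 30 °C and 99% humidity, viability was read by BacTiter-Glo luminescence.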
Cruzain Triton: inhibitors of Trypanosoma cruzi cruzain with detergent; actives 0.43% (n = 200,000); Potency, µM, without a hit: max response, negative = inhibition, hits mostly inhibitors; P25779; purified cruzain, Z-FR-AMC fluorescence, 0.01% Triton;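 further: plate controls were neutral wells for no effect and buffer without enzyme for full effect; nearly all actives have a fitted effect of over 40% in size; top concentration of the series not given in the record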
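Enzyme 1.5 nM, Z-FR-AMC 2 uM, NaOAc 100 mM pH 5.5, DTT 5 mM, Triton X-100 0.01%; 15 min RT compound preincubation; kinetic ex360/em450, 60 s delta.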
Active calls of the source: *; ? = inconclusive; / = not tested or not shown; & = joins results of further samples; [ ] = remark or other dose. Unless noted, the call rests on the fitted dose curve; in most records, active means well fitted curve in the direction sought with a large enough effect; inconclusive means small, poorly fitted or top-dose-only effect, or another doubt; inactive means no such curve, though single readings can be large; an effect the other way counts as inactive or inconclusive. Potency means the concentration at half of the fitted maximal effect. No enrichment for hits; about 4.5% have a hit in one of these screens.

compound,2A StopGo,Marburg entry inh,LASV entry inh,NS1 inh,Cruzain noTriton,SARS PLP yeast,RE007 growth inh,Cruzain Triton
CCc1ccccc1NC(=O)Cn1c(=O)n(-c2cccc(C)c2)c(=O)c2c1c1cc(OC)ccc1n2C,-7%,/,0%[46.1 µM],/,-2%,/,/,-2.5%
O=C1c2cccnc2C(O)N1Cc1ccco1 (configuration not stated),-13%,-15%,9%,10%,4%,-1%,17%,1.9%
C=CCN1C(=O)/C(=C2/Sc3ccc(OC)cc3N2C)SC1=Nc1cccc(O)c1,-19%,?,?,4%,/,0%,2%,/
O=C(NCc1ccccc1)c1cc(S(=O)(=O)N2CCC3(CC2)OCCO3)ccc1F,0%,-13%,-16%,-4%,8%,2%,-10%,3.7%
O=C1CC2(CCN(C(=O)c3cccc(F)c3)CC2)Oc2ccccc21,1%,-3%[46.1 µM],-17%,/,/,2%,-19%,/
Cc1ccc(S(=O)(=O)N(C)C)cc1NC(=O)CSc1nc2ccccc2[nH]1,?,-4%,-5%,-10%,15%,7%,4%,-3.0%
O=C1CC2C(CC(OC(=O)c3ccc(-c4ccccc4)cc3)C2CO)O1 (configuration not stated),-19%,-29%,13%,-9%,?,-3%,24%,-2.2%
CCN(CC)CCCNC(=O)CSc1nc2nc(C)c(Cc3c(F)cccc3Cl)c(C)n2n1,-16%,?,-3%[46.1 µM],/,4%,/,/,2.5%

Quoted from the listing.
Value of O=C1CC2(CCN(C(=O)c3cccc(F)c3)CC2)Oc2ccccc21 in LASV entry inh: -17%
Value of CCN(CC)CCCNC(=O)CSc1nc2nc(C)c(Cc3c(F)cccc3Cl)c(C)n2n1 in Cruzain noTriton: 4%
Value of O=C1CC2C(CC(OC(=O)c3ccc(-c4ccccc4)cc3)C2CO)O1 (configuration not stated) in NS1 inh: -9%
Value of O=C(NCc1ccccc1)c1cc(S(=O)(=O)N2CCC3(CC2)OCCO3)ccc1F in LASV entry inh: -16%

Remaining list, next part
compound,2A StopGo,Marburg entry inh,LASV entry inh,NS1 inh,Cruzain noTriton,SARS PLP yeast,RE007 growth inh,Cruzain Triton
COc1ccc([N+](=O)[O-])cc1NC(=O)CC1SC(=Nc2cccc(C)c2C)N(/N=C(\C)c2ccc(C)cc2)C1=O (configuration not stated),-5%,?,2%,3%,/,1%,5%,/
CCCOc1ccc(CN(C(=O)Cc2coc3ccc(CC)cc23)C2CCS(=O)(=O)C2)cc1 (configuration not stated),-21%,?,-18%[46.1 µM],/,?,/,/,-17%
O=S(=O)(c1ccccc1)N1CCN(Cc2cc3c(cc2Br)OCCO3)CC1,-16%,-9%,10%,/,/,-7%,-14%,/
CCN(CC)CCN1C(=O)C(=O)/C(=C(/O)c2c(C)[nH]c(C(=O)OC)c2C)C1c1ccccc1OC (configuration not stated),-17%,20%&20%,-1%,-10%,-14%,3%,-9%,-2.6%
Cc1ccccc1C(=O)NCCSc1ccccc1,-8%,7%,?,-47%,-29%,4%,0%,5.2%
O=C(CN1CCN(Cc2ccccc2Cl)CC1)N/N=C/c1ccco1,11%,-2%[46.1 µM],-5%,0%,/,0%,2%,/
CSc1nnc2c3c4c(sc3c(=O)n(-c3ccccc3)n12)CC(C)(C)OC4,-3%,0%,6%,-2%,8%,10%,11%,3.3%
CCN(CC(=O)Nc1c(F)cccc1F)C(=O)c1ccccc1F,-9%,/,/,-1%,/,0%,1%,/
CCOC(=O)Cc1ccc(NC(=O)Nc2ccccc2OCc2cc(=O)n3ccccc3n2)cc1,4%,/,22%[46.1 µM],/,12%,/,/,3.1%
CC12CCC(=O)CC1CCC1C2CCC2(C)C1CCC2(O)C(=O)CO (configuration not stated),-27%,-7%,3%,/,/,/,3%,/
COc1ccc(Cl)cc1NC(=O)CN(C)C(=O)c1cn(-c2ccccc2)nc1-c1cccnc1,0%,?,-21%[46.1 µM],/,/,1%,5%,/
COC(=O)[C@@H]1C[C@@H]2CC[C@@H](O)C[C@@H]2N1Cc1ccc(Cl)cc1,-18%,/,/,-1%,-7%,-4%,-5%,0.7%
O=C(NCCCCNC(=O)c1ccccc1F)c1ccccc1F,-10%,?,8%[46.1 µM],4%,/,-4%,4%,/
CNC(=S)Nc1cccc(S(=O)(=O)NCc2ccco2)c1,57%[activator],3%,26%,/,/,-1%,-5%,/
CCOC(=O)CNC(=O)N1CCc2ccc(NC(=O)c3ccccc3Cl)cc2C1,3%,/,/,1%,/,3%,-8%,/
O=C(Cn1ncn2c(cc3cc(F)ccc32)c1=O)N1CCC2(CC1)OCCO2,-10%,/,/,6%,/,2%,10%,/
Cc1ccc(Cn2nnc3c(=O)[nH]c(C4CCN(S(=O)(=O)c5ccc(F)cc5)CC4)nc32)cc1,-14%,?,-6%,13µM*,?,19%,6%,-6.1%
CC(C)C[C@H](NC(=O)c1[nH]cnc1C(=O)N[C@@H](Cc1ccccc1)C(=O)OCc1ccccc1)C(=O)OCc1ccccc1,52%[activator],/,/,?,/,0%,-5%,/
O=C(CCC(=O)Nc1nnc(C2CCCCC2)s1)Nc1ccccc1,-3%,/,/,-3%,/,1%,4%,/
CC(=O)NC(C)C(c1cccs1)N1CCN(c2ccccc2)CC1 (configuration not stated),-2%,21%,6%,-10%,-5%,4%,1%,3.4%
CCOc1ccc(-c2c(C(=O)N/N=C/c3ccc(O)cc3)nnn2-c2nonc2N)cc1,-18%,0%,?,-2%,/,0%,7%,/
CCC(C)NC(=O)c1csc2c1CCCCC2 (configuration not stated),41%[activator],0%,-18%,-72%,-9%,-4%,-23%,5.9%
O=C(c1c(Cl)nc2sccn12)N1CCN(c2cccc(Cl)c2)CC1,0%,?,?,-76%,9%,-4%,-15%,-2.3%
CC(C)N(C(=O)Cn1cc(S(=O)(=O)Cc2ccc(Cl)cc2)c2ccccc21)C(C)C,66%[activator],/,-6%[46.1 µM],/,-9%,/,/,-2.7%

Entries of single compounds from above. Screens in order: 2A StopGo | Marburg entry inh | LASV entry inh | NS1 inh | Cruzain noTriton | SARS PLP yeast | RE007 growth inh | Cruzain Triton
Shown for `CCC(C)NC(=O)c1csc2c1CCCCC2` (configuration not stated) = 41%[activator] | 0% | -18% | -72% | -9% | -4% | -23% | 5.9%
Shown for `Cc1ccc(Cn2nnc3c(=O)[nH]c(C4CCN(S(=O)(=O)c5ccc(F)cc5)CC4)nc32)cc1` = -14% | ? | -6% | 13µM* | ? | 19% | 6% | -6.1%

More results
compound,2A StopGo,Marburg entry inh,LASV entry inh,NS1 inh,Cruzain noTriton,SARS PLP yeast,RE007 growth inh,Cruzain Triton
O=C(Nc1ccc(S(=O)(=O)N2CCN(c3ccccc3)CC2)cc1)c1cccs1,/,?,?,11%,?,23%,1%,1.0%
CCOC(=O)c1cc(NC(=O)Nc2nc3ccccc3s2)c(C)nc1C,-12%,?,-14%,3%,0%,20%,9%,3.8%
CCOC(=O)c1c(C)[nH]c(C(=O)O)c1C,6%,-9%,-12%,3%,10%,11%,-9%,4.8%
O=C(CC1CC2CCC1C2)NCc1cccs1 (configuration not stated),30%,-1%,18%,-13%,-2%,1%,0%,2.1%
Cc1cc(C(=O)CCC(=O)N(C)CC(=O)Nc2c(Cl)cccc2Cl)c(C)s1,-9%,-4%,0%[46.1 µM],/,/,7%,13%,/
O=C(CSc1nnc(-c2ccco2)c(-c2ccco2)n1)Nc1ccccc1,-10%,-3%,-11%,?,20µM*,-1%,-16%,22µM*
CCOn1c(=O)c(-c2ccc(Br)cc2)[n+]([O-])c2ccccc21,-8%,/,/,0%,/,2%,-3%,/
COc1cccc(-c2ccc(NC(=O)C3CCCN(Cc4ccc(CO)o4)C3)cc2)c1 (configuration not stated),-2%,-3%,-6%,5%,/,-5%,-6%,/
CCOC(=O)c1cccc(NC(=O)NCc2cccn2Cc2ccccc2)c1,-30%,/,-2%[46.1 µM],/,-7%,/,/,0.3%
Cc1nnc(NC(=O)CSc2n[nH]c(-c3ccccc3C)n2)s1,7%,2%,9%,8%,/,-9%,-3%,/
Cc1cc(C)c(NC(=O)CSc2nnc(CNC(=O)c3ccco3)o2)c(C)c1,-12%,?,-3%[46.1 µM],-1%,/,1%,-8%,/
COc1ccccc1Oc1coc2c(CN3CCOCC3)c(O)ccc2c1=O,-12%,-1%[46.1 µM],?,3%,/,0%,-13%,/
CCn1ccnc1CN(C)Cc1c(C(=O)N2CCCCCCC2)nc2ccc(Cl)cn12,-10%,2%,?,14%,/,-3%,-8%,/
Cc1ccc(NC(=O)/C(=C\c2ccc([N+](=O)[O-])cc2)NC(=O)c2ccccc2)cc1,22%,-3%,-2%,-4%,5%,2%,12%,-1.0%
CCCCN(CCCC)c1cn[nH]c(=O)c1Cl,?,10%,0%,-6%,-23%,9%,1%,-2.7%
CCCCCC1CC(CC(C)C(=O)Nc2nncs2)C(=O)O1 (configuration not stated),0%,-4%,4%,8%,-1%,2%,-12%,-1.6%
CCOC(=O)C1CCN(C(=O)CSc2n[nH]c(-c3ccccc3)n2)CC1,-2%,/,0%[46.1 µM],/,7%,/,/,3.0%
COc1ccc(OC)c(CNc2ccc(F)c(Cl)c2)c1,4%,-21%,2%,-3%,-6%,-14%,4%,-2.4%
CCCn1nnnc1SCC(=O)Nc1cccc(NC(=O)c2ccco2)c1,8%,-9%[46.1 µM],0%,7%,0%,-2%,3%,1.3%
Cc1c(Nc2c3c(c(C#N)c4nc5ccccc5n24)CCC3)c(=O)n(-c2ccccc2)n1C,/,/,/,28%,7%,5%,/,-0.2%
Cc1cccc(N2C(=O)c3cccc4c(N)ccc(c34)C2=O)c1,-1%,?,?,16%,/,2%,5%,/
O=c1ccn([C@@H]2O[C@H](CO)[C@@H](O)[C@H]2O)c(=O)[nH]1,-20%,46%,3%,13µM*,2%&4%,?,-10%[18.4 µM],1.4%&1.0%
O=C(N/N=C\c1ccc(Cl)cc1Cl)c1sccc1-n1cccc1,0%,-11%,6%,4%,?,-8%,0%,-2.5%

Compound activity deposited in PubChem BioAssay by National Center for Advancing Translational Sciences (NCATS).
